# Compound activity: PubChem, several laboratories
# PKD1 kinase inh: PKD1 (human) kinase inhibition. Q15139. inhibition, %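 (about 10 µM by stock and volumes)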. PKD1 kinase fluorescence polarization assay. 0.056% of 200,000 active;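 active means inhibition of 50% or more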;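 further: controls were vehicle for no effect and a reference inhibitor for full effect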
# Insulin prom inh: TRM-6 insulin promoter activity inhibition; TRM-6 cells (human fetal islet line), insulin promoter-eGFP reporter, imaging; reporter expression induced with tamoxifen; inhibition, % at 2 µM; 0.9% of 130,000 active; AID 1273;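 active means inhibition above the mean plus 3 SD, with well images judged a real hit on visual review, cut at about 60% in these data, passing the limit was not always enough; inconclusive means inhibition over the cutoff but images rejected on review; inactive means inhibition not above the cutoff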
# GALR2 ag: activates the human galanin receptor 2; O43603; GALR2-expressing cells, agonist activation read-out; activation, %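 (tested at 5 µM)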; 0.48% of 140,000 active; AID 803;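 active means above mean plus 3 SD of all compounds, about 5% in these data, not always enough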;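 further: 0% = vehicle buffer wells and 100% = reference agonist at full effect; tested in CHO reporter cells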
# Target sequence (O43603 whole entry, looked up): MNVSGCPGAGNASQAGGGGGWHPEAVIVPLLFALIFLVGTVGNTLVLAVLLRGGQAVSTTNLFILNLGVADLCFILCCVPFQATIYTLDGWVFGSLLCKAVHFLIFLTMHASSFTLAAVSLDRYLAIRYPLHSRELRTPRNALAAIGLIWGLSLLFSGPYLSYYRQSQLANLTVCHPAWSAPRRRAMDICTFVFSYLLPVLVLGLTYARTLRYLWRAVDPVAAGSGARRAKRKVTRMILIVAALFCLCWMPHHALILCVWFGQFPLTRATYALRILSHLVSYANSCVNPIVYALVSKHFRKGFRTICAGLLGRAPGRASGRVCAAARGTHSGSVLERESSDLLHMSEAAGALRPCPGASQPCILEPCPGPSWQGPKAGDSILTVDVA
# HSV augment: HSV replication enhancement | HSV replication augmentation in cells, fold increase | maximum fold increase | 0.005% of 220,000 active | AID 1956;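 active means peak rise of 1.5-fold or more in the series; inconclusive means self-fluorescent or not available for retest; tested in PC3 cells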;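 further: first round at 10 µM; read as green reporter fluorescence; hits show the peak of a series up to 25 µM; 1 = signal of infected wells without compound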
# RGS16-Gao: RGS16-Galphao interaction regulator (human) | O15492+P09471 | bead-based flow cytometry RGS16-Galphao binding, fluorescence; actives lie on both sides | binding response (% of control), % at 10 µM | 0.38% of 220,000 active;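 active means below 25% or above 175%, edge rows of some plates excepted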;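 further: Galphao activated by GDP with aluminum fluoride before binding; 100% = wells without compound and 0% = beads without RGS; some results beyond the cut were filed as inactive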
# Target sequence (O15492 whole entry, looked up): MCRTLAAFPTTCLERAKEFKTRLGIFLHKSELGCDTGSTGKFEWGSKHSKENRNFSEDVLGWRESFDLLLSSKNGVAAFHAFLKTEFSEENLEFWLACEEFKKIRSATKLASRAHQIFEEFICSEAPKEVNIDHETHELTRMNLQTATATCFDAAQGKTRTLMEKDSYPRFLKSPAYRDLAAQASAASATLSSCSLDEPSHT
# Target sequence (P09471 whole entry, looked up): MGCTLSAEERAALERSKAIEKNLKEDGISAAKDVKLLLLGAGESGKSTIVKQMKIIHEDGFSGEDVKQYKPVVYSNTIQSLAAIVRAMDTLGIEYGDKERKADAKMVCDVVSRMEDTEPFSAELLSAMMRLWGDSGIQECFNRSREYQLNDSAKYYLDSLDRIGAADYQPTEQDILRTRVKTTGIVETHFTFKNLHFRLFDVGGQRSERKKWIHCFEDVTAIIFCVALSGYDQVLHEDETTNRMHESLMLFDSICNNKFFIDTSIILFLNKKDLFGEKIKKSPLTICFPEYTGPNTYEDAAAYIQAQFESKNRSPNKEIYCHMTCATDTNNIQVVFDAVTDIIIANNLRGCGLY
# Insulin prom inh cell count: recorded beside Insulin prom inh, whose call it bears; normalized cell count, %; measured here: cell count, toxicity; reference of the scale not given here;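 cells exposed to compound for 48 h; stained nuclei by imaging scaled within each plate; lower means fewer cells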
# HSV augment primary fold: also measured in HSV augment; calls as there; fold increase; compound at 10 µM; measured here: primary screen fold increase 10 uM; tested in PC3 cells;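 GFP signal in the first replicate; 1 = infected wells without compound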
# Active calls of the source: *; i = inactive; ? = inconclusive; / = no result given.
# Preview (17 entries):
# Second line of a record – PKD1 kinase inh	Insulin prom inh	Insulin prom inh cell count	GALR2 ag	HSV augment	HSV augment primary fold	RGS16-Gao
CCOC(=O)c1c(C)[nH]c(C(=O)COC(=O)c2oc3ccccc3c2C)c1C
    0	-200	83	-2.0	i	0.89	101
N#CCSc1nc(N)c(C#N)c(C2CCCCC2)c1C#N
    -2	/	/	1.0	i	0.97	98
Cc1ccc(Oc2ccc(Oc3ccc(C)cc3)nn2)cc1
    4	19	187	-1.8	i	1.1	105
Cc1sc(N/N=C/C=C/c2ccccc2)nc1-c1ccccc1
    9	/	/	6.7	i	0.93	95
NC(=O)C1CCN(C(=O)CN2CCN(c3cccc(C(F)(F)F)c3)CC2)CC1
    9	36	85	-4.2	i	0.96	101
C/C(=N\NC(=O)c1ccc(O)cc1)c1ccc(N2CCOCC2)cc1
    -2	/	/	/	i	0.95	96
CCc1cc2c3c(c(=O)oc2cc1OC)CCCC3
    -1	3	100	-5.8	i	0.85	98
COc1cc(C(=O)NC(c2ccccc2)c2ccccc2)cc(Cl)c1OC
    -6	/	/	-1.9	i	0.88	89
Cc1nc2nc(COc3ccccc3)[nH]n2c(=O)c1C
    -11	/	/	-1.1	i	0.99	107
CCOCCCNC(=O)C1CCN(C(=O)N(C)C)CC1
    -8	/	/	-1.8	i	0.99	98
Cc1ccc(Sc2ncccc2/C=N/O)cc1
    -8	-11	94	/	i	0.99	102
Cc1cc2c(cc(C(=O)OCC(=O)NCc3ccco3)n2C)s1
    -9	-11	57	-1.7	i	0.74	107
CC(C)NC(=O)/C(C#N)=C/c1ccc2c(c1)OCCO2
    9	/	/	0.2	i	0.96	102
Cc1ccc2nc(C)c(Cl)c(=O)n2c1
    0	42	136	-2.4	i	0.99	92
CCOC(=O)C1=C(O)/C(=C\c2ccc(O)c(OCC)c2)N=C1C
    /	/	/	/	i	1	109
Cc1[nH]n(-c2cccc3ccccc23)c(=O)c1C=Nc1ccc2[nH]c(=O)[nH]c2c1
    3	20	107	-2.1	i	0.88	96
Cc1nnc(SCC(=O)NC2CCCCC2C)s1 (centres undefined)
    -10	/	/	/	i	0.82	102

# Results (from the top)
# Second line of a record – PKD1 kinase inh	Insulin prom inh	Insulin prom inh cell count	GALR2 ag	HSV augment	HSV augment primary fold	RGS16-Gao
CCOC(=O)c1c(C)[nH]c(C(=O)COC(=O)c2oc3ccccc3c2C)c1C
    0	-200	83	-2.0	i	0.89	101
N#CCSc1nc(N)c(C#N)c(C2CCCCC2)c1C#N
    -2	/	/	1.0	i	0.97	98
Cc1ccc(Oc2ccc(Oc3ccc(C)cc3)nn2)cc1
    4	19	187	-1.8	i	1.1	105
Cc1sc(N/N=C/C=C/c2ccccc2)nc1-c1ccccc1
    9	/	/	6.7	i	0.93	95
NC(=O)C1CCN(C(=O)CN2CCN(c3cccc(C(F)(F)F)c3)CC2)CC1
    9	36	85	-4.2	i	0.96	101
C/C(=N\NC(=O)c1ccc(O)cc1)c1ccc(N2CCOCC2)cc1
    -2	/	/	/	i	0.95	96
CCc1cc2c3c(c(=O)oc2cc1OC)CCCC3
    -1	3	100	-5.8	i	0.85	98
COc1cc(C(=O)NC(c2ccccc2)c2ccccc2)cc(Cl)c1OC
    -6	/	/	-1.9	i	0.88	89
Cc1nc2nc(COc3ccccc3)[nH]n2c(=O)c1C
    -11	/	/	-1.1	i	0.99	107
CCOCCCNC(=O)C1CCN(C(=O)N(C)C)CC1
    -8	/	/	-1.8	i	0.99	98
Cc1ccc(Sc2ncccc2/C=N/O)cc1
    -8	-11	94	/	i	0.99	102
Cc1cc2c(cc(C(=O)OCC(=O)NCc3ccco3)n2C)s1
    -9	-11	57	-1.7	i	0.74	107
CC(C)NC(=O)/C(C#N)=C/c1ccc2c(c1)OCCO2
    9	/	/	0.2	i	0.96	102
Cc1ccc2nc(C)c(Cl)c(=O)n2c1
    0	42	136	-2.4	i	0.99	92
CCOC(=O)C1=C(O)/C(=C\c2ccc(O)c(OCC)c2)N=C1C
    /	/	/	/	i	1	109
Cc1[nH]n(-c2cccc3ccccc23)c(=O)c1C=Nc1ccc2[nH]c(=O)[nH]c2c1
    3	20	107	-2.1	i	0.88	96
Cc1nnc(SCC(=O)NC2CCCCC2C)s1 (centres undefined)
    -10	/	/	/	i	0.82	102
Clc1ccc(COn2c(-c3ccccc3)nc3ccccc32)cc1
    -2	/	/	-0.6	i	0.99	107
N#CCCn1c(SCC(=O)NCC2CCCO2)nc2ccccc21 (centres undefined)
    5	-21	101	-1.1	i	1.1	105
Cc1ccc(-n2cc3ccc([N+](=O)[O-])cc3n2)cc1
    -5	-55	135	-2.7	i	0.89	96
Cc1cc(C)c(C)c(/C=C(/C#N)C(N)=S)c1C
    -19	/	/	-1.7	i	1.4	102
COc1ccccc1N1CCN(S(=O)(=O)c2ccc(Br)s2)CC1
    -7	-17	75	-2.0	i	0.97	101
CCOC(=O)c1ccc(NC(=O)CSc2nnc(CNC(=O)c3c(F)cccc3Cl)o2)cc1
    -1	7	91	-2.6	i	1.1	99
COc1ccc(N)c2c1OCCC2=O
    -5	46	64	-1.8	i	1.1	101
O=C1CN(S(=O)(=O)c2ccccc2C(F)(F)F)CCN1
    -1	/	/	/	i	0.93	93
O=C(c1cccc(F)c1)N1CCC(N2CCOCC2)CC1
    -7	4	87	-2.0	i	0.94	97
Cc1ccc(-n2c(N)c(C(=O)N3CCOCC3)sc2=S)c(C)c1
    -1	23	103	-1.1	i	1	83
CCc1ccc(C(=O)/C=C/Nc2ccc(S(=O)(=O)Nc3cnc4ccccc4n3)cc2)cc1
    /	/	/	/	i	1	98
COc1ccc2c(-c3ccccc3)cc(SCC(=O)NC3CCS(=O)(=O)C3)nc2c1 (centres undefined)
    -12	/	/	-0.1	i	1.1	132
O=C(NN1CCOCC1)c1sc2cccc(F)c2c1Cl
    -2	/	/	/	i	0.96	103
COc1ccc(C2N(S(=O)(=O)c3ccc(C)cc3)CCN2S(=O)(=O)c2ccc(C)cc2)cc1
    2	-28	70	0.0	i	0.96	100
CCn1c(COc2ccccc2C)nnc1SCC(=O)NC1CCCC1
    2	61	95	-0.7	i	1.1	95
Clc1ccc(-c2noc(CN3CCOCC3)n2)cc1
    /	/	/	/	i	1	98
COc1ccccc1N1C(=O)CC(Nc2ccc(N3CCOCC3)cc2)C1=O (centres undefined)
    3	-2	129	-2.3	?	/	93
Fc1ccc(C(c2nnnn2CCc2ccccc2)N2CCCc3ccccc32)cc1 (centres undefined)
    2	/	/	-0.7	i	1	99
COC(=O)CSc1ccc2nnc(-c3ccc(F)cc3)n2n1
    16	/	/	0.2	i	0.81	96
COc1ccc(CCN(C)C(=O)/C=C/c2c(Cl)nc3ccccn23)cc1OC
    -4	/	/	/	i	0.93	92
Cc1c(C(=O)N2CCN(c3ccccn3)CC2)oc2ccccc12
    -12	14	67	-0.1	i	1	102
NC(=O)c1ccsc1NC(=O)COC(=O)C1CC2CCCC(C1)C2=O (centres undefined)
    /	/	/	/	i	1.2	100
COc1ccc(/C=N/NC(=O)C2COc3ccccc3O2)cc1OC (centres undefined)
    -3	23	46	/	i	0.89	115
CCOC(=O)c1ccc(-c2n[nH]c(=O)c3ccccc23)cc1
    -9	0	57	-2.5	i	0.91	100
COc1ccc(C(F)(F)F)cc1NC(=O)c1nc2nc(C)cc(C(F)F)n2n1
    -8	58	193	-3.9	i	0.86	5
O=C(COC(=O)c1cccc2ccccc12)NCCCc1ccccc1
    -11	-21	67	-2.7	i	1.1	58
Cc1c(Cl)cccc1NC(=O)C1CCCCC1
    3	/	/	/	i	1	102
COc1cc(OC)c([N+](=O)[O-])cc1/C=N/NC(=O)c1ccncc1
    -5	-47	95	/	i	0.98	84
O=C(NCc1ccccn1)c1nc(-c2cccs2)no1
    10	12	102	/	i	1.1	101
CCCCCc1nnc(NC(=O)C(=O)OCC)s1
    9	13	78	0.1	i	1.1	103
Cc1nc2ccccn2c1C(=O)c1ccccc1
    -5	/	/	-0.1	i	0.96	105
Cc1ccc(C(=O)O/N=C/c2c(C(F)(F)F)nn(C)c2Sc2ccc(Cl)cc2)cc1
    -1	21	79	-3.1	i	0.98	106
CC(C)(C)OC(=O)N/N=C\c1ccc([N+](=O)[O-])s1
    5	-123	123	/	i	0.89	104

# Continuation.
# Second line of a record – PKD1 kinase inh	Insulin prom inh	Insulin prom inh cell count	GALR2 ag	HSV augment	HSV augment primary fold	RGS16-Gao
COc1cc(CN2CCN(Cc3ccc(C)cc3)C(CCO)C2)ccc1O (centres undefined)
    3	78*	98*	/	i	0.96	133
Cc1cc(=O)oc(C)c1C(=O)N1CCCCC1
    4	-5	83	-1.6	i	0.98	98
C/C(=C\c1ccccc1)CN1CCN(Cc2ccc(C)o2)C(CCO)C1 (centres undefined)
    1	/	/	/	i	0.92	110
COc1ccc(NS(=O)(=O)Cc2ccccc2)cc1OC
    -8	-10	91	-0.6	i	1.1	118
Cn1nccc1NC(=O)CC(CC(=O)O)c1ccccc1 (centres undefined)
    /	/	/	/	i	1.2	99
CC(C)C(=O)Nc1ccc(NC(=O)c2ccc([N+](=O)[O-])cc2Cl)cc1
    -1	3	104	-0.9	i	0.85	102
Cc1cccc(C)c1NC(=S)N(CCCN1CCOCC1)Cc1cccnc1
    -4	-27	126	/	i	0.88	99
O=C(Cc1c(Cl)cccc1Cl)OCC(=O)N1CCc2ccccc2C1
    3	/	/	-0.4	i	1.1	103
COc1ccc(CCn2c(N)cc(=O)[nH]c2=S)cc1OC
    10	-5	61	0.4	i	1.1	107
COC(=O)[C@H](C)NC(=O)Nc1ccc(OC)c(OC)c1
    1	/	/	-0.3	i	1	109
CC(=O)c1cnc2c(-c3ccccc3)c(C(F)(F)F)nn2c1C
    0	0	78	/	i	1	95
Fc1cccc(CN2CCCCCCC2)c1
    -4	13	150	-0.2	i	1	114
O=C1/C(=C/c2cccs2)SC(=S)N1N1CCOCC1
    /	/	/	/	i	1	96
CCOC(=O)N1CCN(S(=O)(=O)c2ccc(C(=O)Nc3nc4ccccc4s3)cc2)CC1
    -3	/	/	-0.6	/	/	98
CC(=O)NC1=NN(C(C)=O)C(C)(CS(=O)(=O)c2ccc(C)c(C)c2)S1 (centres undefined)
    2	/	/	4.4	i	0.64	103
COCC(=O)N1CCCC(CNS(=O)(=O)c2ccc(OC)cc2)C1 (centres undefined)
    0	/	/	/	i	0.9	117
Cc1nc2c(C(=O)N3CCN(c4ccccn4)CC3)cnn2c(C)c1Cc1cccc(Cl)c1
    -20	/	/	-0.5	i	0.87	101
CC(C)C(=O)Nc1nc2c(c(=O)[nH]1)CCCC2
    -4	21	184	/	/	/	101
CC(C)OC(=O)c1cn(-c2ccccc2)nc1-c1ccc2c(c1)OCCO2
    3	56	123	-1.6	i	1	108
CC(C)(C)NC(=O)C1CCN(c2ccc(S(=O)(=O)N3CCOCC3)cc2Cl)CC1
    2	14	82	/	i	0.88	114
COc1ccc(NS(=O)(=O)c2ccc(NC(=S)NC(=O)/C=C/c3ccccc3)cc2)nn1
    -1	-22	95	0.5	i	0.94	98
CCOC(=O)c1cccc(NC(=O)C2CCCO2)c1 (centres undefined)
    -5	-38	103	-1.7	i	1	99
Cc1cccc(NC(=O)CC2NCCNC2=O)c1 (centres undefined)
    1	4	146	-1.7	i	0.96	91
CC(C)(C)NC(=O)C(=O)NCCC1=CCCCC1
    -2	7	90	-1.0	i	0.98	107

# Part of the list above, as tab-separated lines:
mol	PKD1 kinase inh	Insulin prom inh	Insulin prom inh cell count	GALR2 ag	HSV augment	HSV augment primary fold	RGS16-Gao
Cc1cccc(NC(=O)CC2NCCNC2=O)c1 (centres undefined)	1	4	146	-1.7	i	0.96	91
CC(C)(C)NC(=O)C(=O)NCCC1=CCCCC1	-2	7	90	-1.0	i	0.98	107
